Bioassay records: PubChem BioAssay, Center for Chemical Genomics, University of Michigan
TAR Tat displ = TAR RNA-Tat peptide displacers, HIV-1, primary screen, biochemical, FRET, FAM/TAMRA-labeled Tat; HIV-1 TAR RNA, Tat peptide displacement FRET; hits give high values; 100,000 compounds, 0.6% hits; z-score (concentration not given with the values);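 further: score is relative to mean and SD of negative controls; some compounds called inactive have numbers as strong as hits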
CDC25B CDK2 inh = primary biochemical HTRF screen for blockers of M-phase inducer phosphatase 2 binding to CDK2/cyclin A. 94,000 compounds, 0.72% hits. z-score (test concentration not listed). P30305+P24941. HTRF CDC25B-CDK2/CyclinA binding, anti-His/anti-Flag; hits give high values;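 further: score is relative to mean and SD of negative controls; strong numbers were not always called active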
* hit, by the source's call; / = not tested or not shown.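 How the source made its calls: active means z-score from 3 up in half or more of its runs; inactive means the rest.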

A first look:
SMILES | TAR Tat displ | CDC25B CDK2 inh
COc1ccccc1Nc1nc(N)nc(N)c1S(=O)(=O)c1ccccc1 | 0.52 | 2.2
CCCCNc1ncnc2c1sc1nc3c(cc12)COC(C)(C)C3 | -1.2 | /
CCS(=O)(=O)NCc1nnnn1-c1ccc(C)cc1 | 0.5 | /
O=C(CN1C(=O)c2ccccc2S1(=O)=O)Nc1ccc(F)c(F)c1 | 4.6 | -1.2
CCCSc1nc2c(c(=O)[nH]1)C(c1ccncc1)C(C(=O)OCC)=C(C)N2 (configuration not stated) | -2.5 | -1.4
CC1=C(C#N)C(c2cccnc2)C2=C(CC(C)(C)CC2=O)N1 (configuration not stated) | / | -1.5
Cc1ccc(S(=O)(=O)c2nc(S(=O)(=O)CCO)sc2N2CCOCC2)cc1 | 0.87 | 0.23
Cc1ccc(C(=O)Nc2nc3c(s2)C(=O)CC(C)(C)C3)cc1C | 0.55 | -1
O=C(NNc1c(Cl)cncc1Cl)C(c1ccccc1)c1ccccc1 | / | -1.2
CCOc1ccc(S(=O)(=O)O)c(C)c1 | / | -1.8
CC(C)N(Cc1ccccc1)C(=O)c1ccc2nsnc2c1 | / | -1.4
CC[C@H](C)C(=O)O[C@H]1C[C@@H](C)C=C2C=C[C@H](C)[C@H](CC[C@@H]3C[C@@H](O)CC(=O)O3)[C@H]21 | 1.7 | /
O=C(c1ccco1)N1CCN(S(=O)(=O)c2ccc(-c3ccc(=O)[nH]n3)s2)CC1 | 2.7 | /
CC1(C)NC(=O)N(CC(O)COc2ccccc2F)C1=O (configuration not stated) | 1.5 | 0.17
Cc1cc(-c2ccc(C)c(S(=O)(=O)Nc3ccc(F)c(F)c3)c2)n[nH]1 | 0.39 | /
O=C(NCC1CCCO1)c1ccc2c(c1)nc1n2CCOC1 (configuration not stated) | 1 | /
Cc1ccccc1Cn1cccc1CNS(=O)(=O)Cc1ccccc1 | 2.1 | /
Cc1cc(Oc2cc(Cl)cc(Cl)c2)nc(-c2ccccn2)n1 | / | -3.3

The whole of this part, repeating the preview:
SMILES | TAR Tat displ | CDC25B CDK2 inh
COc1ccccc1Nc1nc(N)nc(N)c1S(=O)(=O)c1ccccc1 | 0.52 | 2.2
CCCCNc1ncnc2c1sc1nc3c(cc12)COC(C)(C)C3 | -1.2 | /
CCS(=O)(=O)NCc1nnnn1-c1ccc(C)cc1 | 0.5 | /
O=C(CN1C(=O)c2ccccc2S1(=O)=O)Nc1ccc(F)c(F)c1 | 4.6 | -1.2
CCCSc1nc2c(c(=O)[nH]1)C(c1ccncc1)C(C(=O)OCC)=C(C)N2 (configuration not stated) | -2.5 | -1.4
CC1=C(C#N)C(c2cccnc2)C2=C(CC(C)(C)CC2=O)N1 (configuration not stated) | / | -1.5
Cc1ccc(S(=O)(=O)c2nc(S(=O)(=O)CCO)sc2N2CCOCC2)cc1 | 0.87 | 0.23
Cc1ccc(C(=O)Nc2nc3c(s2)C(=O)CC(C)(C)C3)cc1C | 0.55 | -1
O=C(NNc1c(Cl)cncc1Cl)C(c1ccccc1)c1ccccc1 | / | -1.2
CCOc1ccc(S(=O)(=O)O)c(C)c1 | / | -1.8
CC(C)N(Cc1ccccc1)C(=O)c1ccc2nsnc2c1 | / | -1.4
CC[C@H](C)C(=O)O[C@H]1C[C@@H](C)C=C2C=C[C@H](C)[C@H](CC[C@@H]3C[C@@H](O)CC(=O)O3)[C@H]21 | 1.7 | /
O=C(c1ccco1)N1CCN(S(=O)(=O)c2ccc(-c3ccc(=O)[nH]n3)s2)CC1 | 2.7 | /
CC1(C)NC(=O)N(CC(O)COc2ccccc2F)C1=O (configuration not stated) | 1.5 | 0.17
Cc1cc(-c2ccc(C)c(S(=O)(=O)Nc3ccc(F)c(F)c3)c2)n[nH]1 | 0.39 | /
O=C(NCC1CCCO1)c1ccc2c(c1)nc1n2CCOC1 (configuration not stated) | 1 | /
Cc1ccccc1Cn1cccc1CNS(=O)(=O)Cc1ccccc1 | 2.1 | /
Cc1cc(Oc2cc(Cl)cc(Cl)c2)nc(-c2ccccn2)n1 | / | -3.3
CCC(C)NC(=O)NCCn1cnc2cc(C(=O)NC3CCCC3)ccc21 (configuration not stated) | 0.8 | /
COc1ccc(Oc2ccc(/C(N)=N/OC(=O)C(C)(C)C)cc2[N+](=O)[O-])cc1 | / | -1.3
CCn1nccc1C1CCCN1S(=O)(=O)c1ccc(C(C)C)cc1 (configuration not stated) | 0.25 | -2.9
COCCCCC(=NOCCN)c1ccc(C(F)(F)F)cc1 | 0.73 | /
Cc1ccc(S(=O)(=O)n2c(=O)sc3ccccc32)cc1 | 0.48 | 1.4
Cc1nn2c(=O)cc(CSc3nnc(COc4ccccc4C)n3C)nc2s1 | -1.5 | /
COc1cccc(CSc2nc3ccncc3n2Cc2ccccc2)c1 | 2.3 | -1.8
C=CCOC(=O)C1=C(C)NC2=C(C(=O)CCC2)C1c1ccccc1OCCCC (configuration not stated) | 1.6 | -2.1
O=C(CCc1nnc2ccc(N3CCOCC3)nn12)Nc1cccc(F)c1 | 0.7 | /
COc1ccc2nc(NC(=O)C3CCN(c4ncnc5c4nc4n5CCCCC4)CC3)sc2c1 | 0.39 | /
CC1CC(C)CN(CCCNC(=O)c2csc3c2CCCCC3)C1 (configuration not stated) | -0.89 | -2.8
O=C(CN1C(=O)c2ccccc2Sc2ncccc21)Nc1cc(F)ccc1F | 0.61 | /
CC1=C(C(=O)OCc2ccccc2)C(c2ccc(C)s2)C2=C(CC(C)(C)CC2=O)N1 (configuration not stated) | 1.6 | -0.43
CC1(C)C(=O)OC(C(=O)c2ccc(C(C)(C)C)cc2)C(C)(C)C1=O (configuration not stated) | / | 1
CCN(CC)c1ccc2nnc(CCC(=O)NC(C)C)n2n1 | 0.77 | /
O=S(=O)(Nc1cccc(-c2nc(-c3cccc(Br)c3)co2)c1)c1ccccc1 | 0.31 | /
CC1=C(c2ccccc2)S(=O)(=O)NC1=NCCN1CCCCC1C (configuration not stated) | -1.4 | -2
CCSCCOC(=O)C1=C(C)NC2=C(C(=O)CC(C)(C)C2)C1c1ccc(CC)cc1 (configuration not stated) | -2.3 | -0.87
CSc1cccc(NS(=O)(=O)c2c(C)noc2C)c1 | -0.71 | -3
Cc1nc2c(c(C)nn2C(C)(C)C)c(C)c1CCC(=O)Nc1ccc(Br)cn1 | 0.82 | 1.4
CCC(C)NC(=O)C1CCCN1c1nnc(N2CCCC2=O)s1 (configuration not stated) | 1.4 | -0.57
COc1ccc(C(=O)c2cn(Cc3ccccc3OC)c3cc4c(cc3c2=O)OCCO4)cc1 | 1.6 | 0.48
CCCCSc1nc2c(c(=O)[nH]1)C(c1ccncc1)C(C(=O)OC)=C(C)N2 (configuration not stated) | -0.67 | -1.9
COc1ccc(OCC(=O)Nc2sc3c(c2C(N)=O)CCCC3)cc1 | 0.66 | -1.1
O=c1[nH]c(CSc2nnc(-c3ccccn3)o2)nc2ccccc12 | -1.3 | 3
CCc1nn(CC(=O)NCCCN2CCOCC2)c(=O)c2cc3sccc3n12 | -1.7 | -1.6
O=S(=O)(c1ccc(-n2cccn2)cc1)N1CCc2ccccc21 | 0.59 | /
Cc1nn2c(=O)cc(CSc3nc(-c4ccccc4Cl)nc4cc(=O)[nH]n34)nc2s1 | -1.4 | /
CCN(CC)CCCNC(=O)c1c(O)c2cccc3c2n(c1=O)CC3 | 0.96 | /
Cc1cc(C)c2c(-n3cccc3)c(C(=O)NCC3CCCO3)sc2n1 (configuration not stated) | -0.96 | -1.1
CCOc1ccc(S(=O)(=O)[C@H]2CS(=O)(=O)C[C@@H]2NCCc2ccc(F)cc2)cc1 | -1.2 | -0.85
CCOC(=O)c1ccc(-n2c(=O)c(C#N)cc3c(=O)n4cccc(C)c4nc32)cc1 | 0.3 | 0.13
CC1CN(C(=O)Cn2cc(SCC(=O)N3CCCc4ccccc43)c3ccccc32)CC(C)O1 (configuration not stated) | -1.6 | /
O=C(NC1CCCC1)C1CCC(CNc2c(N3CCCCC3)c(=O)c2=O)CC1 (configuration not stated) | 1.2 | -1.6
C#CC(CC)(CC)NC(=O)c1sc2ccccc2c1Cl | / | 0.17
Nc1cc(=O)nc(SCC(=O)NC2CCCCC2)n1-c1ccccc1 | 1.5 | -0.82
O=C1CC(=O)N(c2cccc(F)c2)N1 | 0.79 | 0.1
CCOc1cc(C2Nc3ccc(C(=O)c4ccccc4)cc3NC3=C2C(=O)CC(C)(C)C3)ccc1O (configuration not stated) | -8.2 | -0.58
COc1ccc(NC(=O)/C=C/c2ccc(Cl)cc2)cc1 | / | -1
CCCN1CCc2nc(Nc3cc(OC)ccc3OC)ncc2C1 | 1.2 | /
c1ccc(CSc2ccc(-c3cccs3)nn2)nc1 | 1.2 | /
CC(C)(C)C(=O)NNC(=O)CSc1nc2cc(Cl)ccc2s1 | / | -1.3

(more compounds)
SMILES | TAR Tat displ | CDC25B CDK2 inh
O=C(c1ccc(N2C(=O)C3CC=C(Cl)CC3C2=O)cc1)N1CCOCC1 (configuration not stated) | -0.01 | -1.2
O=C(Nc1ccccc1)N1CCN2C(=O)c3ccccc3C12c1ccccc1 (configuration not stated) | / | -0.8
CCOc1cc(C2C(C#N)=C(N)Oc3n[nH]c(C)c32)ccc1OCc1cccc(F)c1 (configuration not stated) | 0.93 | -4
O=C(CCCn1sc2ccccc2c1=O)Nc1ccccc1Br | 1.2 | -1.9
CCOc1cc(C2SC(NC(C)=O)=NN2C(C)=O)ccc1OCc1ccc(C)cc1 (configuration not stated) | 1.2 | 0.78
CC1CCC(NC(=O)Cn2cc3c(n2)CCCC3)CC1 (configuration not stated) | / | -1.4
ONC1=NC(O)C(O)N=C1NO (configuration not stated) | / | -1.8
CC(C)OC(=O)OCCNC(=O)c1cc2ccccc2oc1=O | / | -1.2
COc1ccc(-c2nc3n(n2)C(=O)CC(c2ccc(C)cc2)S3)cc1 (configuration not stated) | / | -13
COC(=O)C1C2C=CC3(CN(c4cccc(Cl)c4)C(=O)C13)O2 (configuration not stated) | -0.97 | -1.8
Cc1ccc2oc3c(c(=O)c2c1)C(c1ccc(O)cc1)N(Cc1ccccc1)C3=O (configuration not stated) | 0.61 | -0.52
Cc1cccc(C2Nc3cccc4cccc(c34)N2)c1 | 4.3 | 0.56
CCSc1nnc(NC(=O)c2cc(-c3ccc4c(c3)OCCO4)on2)s1 | 0.45 | -1.2
Cc1cc(=O)n2nc(N(C)CC(=O)NCc3ccc4c(c3)OCO4)sc2n1 | 2.8 | 0
CSc1cccc(NC(=O)C2CCCN(c3nnc(N4CCCC4=O)s3)C2)c1 (configuration not stated) | 2.5 | -1.9
O=S1(=O)C[C@H](NCCc2ccccc2F)[C@@H](S(=O)(=O)c2ccc(F)cc2)C1 | 2.9 | -0.73
Nc1nnc(-c2cccc(Cl)c2Cl)c(N)n1 | 1.2 | -1.8
COc1ccc(C)cc1NS(=O)(=O)c1ccc(-c2n[nH]c(C)c2C)s1 | 0.31 | /
NS(=O)(=O)c1cccc(NC(=O)c2nc3ccccc3s2)c1 | / | -0.19
COC(=O)c1ccc(C=C(C#N)C#N)n1-c1ccc(F)cc1 | / | -1.1
CN1CCn2c1nc(N1CCCCC1)nc2=O | 0.29 | -2.3
CC(C)Cn1cnc2nc(CSc3ccccc3NC(=O)C3CCCCC3)cc(=O)n21 | -0.93 | 0.16
CCCCCCCOC(=O)C1=C(C)Nc2nnnn2C1c1ccc(O)cc1 (configuration not stated) | -0.48 | 0.88
CC1=C(C(=O)OC2CCCCC2)C(c2cccc(C)c2)n2nnnc2N1 (configuration not stated) | / | 0.34
CCOC(=O)NC(Nc1ccccc1C)(C(F)(F)F)C(F)(F)F | / | -1
Cc1ccc(-c2nnc3sc(COc4cccc(C)c4)nn23)cc1 | 1.8 | 1.1
O=C(CSc1nc(-c2ccc(F)cc2)nc2cc(=O)[nH]n12)N1CCCC1 | 0.54 | /
O=C(O)c1cnn(-c2ccc(Cl)cc2)c1-c1ccncc1 | -0.56 | 0.19
Cc1ccc(S(=O)(=O)Nc2cc(C)c(O)c(Cl)c2)cc1 | 0.17 | -0.83
CCOCCCNC(=O)c1cc2sc(CC)cc2n1C | -0.73 | -1.1
CCc1ccc(-c2cc(C)no2)cc1S(=O)(=O)NC(CC)CN1CCOCC1 (configuration not stated) | 0.09 | /
CCOC(=O)c1nc(NCc2ccc(C)o2)c2c(C)noc2n1 | -1.4 | /
COc1ccc(C(=O)c2nc3ccccc3n2C)cc1OC | / | -1.4
O=C(Cn1nc(-c2ccccc2)c2ccccc2c1=O)c1ccc(Cl)cc1 | 3 | -0.52
c1nc(NCCc2ccsc2)c2nc3n(c2n1)CCCCC3 | 0.02 | /
CCOC(=O)c1c(N)n(-c2cc(C)ccc2C)c2nc3ccccc3nc12 | -1.6 | -4.8
Cn1nc(C(=O)Nc2cccc(Cl)c2)c2c1-c1ccccc1SC2 | 1.1 | -2.1
Cc1ccc(-c2c(N3CCN(c4cccc(C)c4C)CC3)c(=O)c2=O)cc1C | 2.1 | /
CC(=O)n1nccc1-c1c(C)nc2ccccn12 | / | -2.2
CCCS(=O)(=O)Nc1cccc(-c2ccc(S(=O)(=O)CC)nn2)c1 | -0.4 | /
CC1C(=O)Nc2ccc(S(=O)(=O)N3CCC(C(N)=O)CC3)cc2NC1=O (configuration not stated) | 0.59 | -0.67
Cc1ccc(S(=O)(=O)OC23C=CC(CC2)CC3)cc1 | / | -0.06
COC(=O)c1c(SCC(=O)Nc2ccc(OC)cc2OC)[nH]c2ccc(Cl)cc2c1=O | -7.1 | /
COc1ccc(OC)c(CNc2cc(C)nc3nc(-c4ccco4)nn23)c1 | 0.27 | /
CCOC(=O)c1nc(NCCN2CCOCC2)c2ccccc2n1 | 0.71 | /
O=C(CN1c2ccc(Br)cc2-c2ccccc2S1(=O)=O)Nc1cccc(F)c1 | -0.14 | -0.1
COc1ccc(-c2cnc(C)o2)cc1S(=O)(=O)N1CCCCC1 | 2.1 | /

Compounds were not picked by outcome, and some 0.87% of all compounds hit somewhere here.
